# TRPML1 ag – agonists of human TRPML1 channel; Q9GZU1; TRPML1-expressing cells, Ca2+ dye fluorescence, FDSS; host cell line not named in the record; reference of the full effect not given here; activation, % (test concentration not listed); actives 0.12% (n = 410,000); in the data active = activation above about 50%; inconclusive = about 30% to 50%; inactive = below about 30%; further: 0% is about no effect; the text of the record puts the active cut at 80%
# Target sequence (Q9GZU1 whole entry, looked up): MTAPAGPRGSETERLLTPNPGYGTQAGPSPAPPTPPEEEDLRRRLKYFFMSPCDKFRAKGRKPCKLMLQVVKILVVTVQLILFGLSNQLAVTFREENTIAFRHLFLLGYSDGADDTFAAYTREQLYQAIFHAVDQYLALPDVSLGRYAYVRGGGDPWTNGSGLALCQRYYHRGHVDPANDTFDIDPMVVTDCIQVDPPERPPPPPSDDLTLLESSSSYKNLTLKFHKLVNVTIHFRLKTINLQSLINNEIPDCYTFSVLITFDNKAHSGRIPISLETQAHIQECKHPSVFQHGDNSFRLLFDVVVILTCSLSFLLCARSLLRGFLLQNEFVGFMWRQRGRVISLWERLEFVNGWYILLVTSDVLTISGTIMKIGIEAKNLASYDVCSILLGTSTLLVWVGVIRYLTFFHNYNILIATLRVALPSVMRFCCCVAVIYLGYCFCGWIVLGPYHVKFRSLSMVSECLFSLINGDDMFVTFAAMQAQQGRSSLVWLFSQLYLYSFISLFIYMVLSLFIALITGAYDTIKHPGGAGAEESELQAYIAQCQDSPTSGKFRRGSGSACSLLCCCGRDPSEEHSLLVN
#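 Kinetic FDSS Ca2+ read in Tet-induced TRPML1-DL cells (ABD Ca8 dye plus quencher, 45-90 min RT loading): baseline, then compound, then 110 s agonist window; EC80 agonist 54-4 at 4uM final added afterwards for a 110 s antagonist window.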
# TRPML1 blocker – inhibitors of human TRPML1 channel. TRPML1-inducible cells, Ca2+ dye fluorescence, FDSS; stronger effect = lower value; inhibition of EC80 agonist-evoked calcium signal. actives 0.02% (n = 390,000). Q9GZU1. activity change, negative = inhibition, % (no concentration beside the values); in the data active means activity change below about -50%; inconclusive means about -30% to -50%; inactive means above about -30%;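 further: stimulus is agonist 54-4 at its EC80 concentration; on the % scale 0 is the no-effect control and ±100 the full control effect; compound concentration not given in the record; the text of the record puts the active cut at -80%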
#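 Tet-induced TRPML1-DL cells loaded with Ca8 no-wash calcium dye were read kinetically on FDSS. Compound addition was followed by EC80 agonist 54-4 (4 uM final); inhibition was read over 110 s.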
# D2 PAM – positive allosteric modulators of human D2 dopamine receptor; AID 624464; potentiation, % (no concentration beside the values); actives 0.23% (n = 360,000); P14416; DiscoveRx D2 beta-arrestin cells, luminescence, 90 min; 100% = 57 uM dopamine signal; active = potentiation of 50% or more; inconclusive = 30% to 50%; inactive = 30% or less;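 further: compound concentration not given in the record; tested on top of an EC20 dose of dopamine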
# Target sequence (P14416 whole entry, looked up): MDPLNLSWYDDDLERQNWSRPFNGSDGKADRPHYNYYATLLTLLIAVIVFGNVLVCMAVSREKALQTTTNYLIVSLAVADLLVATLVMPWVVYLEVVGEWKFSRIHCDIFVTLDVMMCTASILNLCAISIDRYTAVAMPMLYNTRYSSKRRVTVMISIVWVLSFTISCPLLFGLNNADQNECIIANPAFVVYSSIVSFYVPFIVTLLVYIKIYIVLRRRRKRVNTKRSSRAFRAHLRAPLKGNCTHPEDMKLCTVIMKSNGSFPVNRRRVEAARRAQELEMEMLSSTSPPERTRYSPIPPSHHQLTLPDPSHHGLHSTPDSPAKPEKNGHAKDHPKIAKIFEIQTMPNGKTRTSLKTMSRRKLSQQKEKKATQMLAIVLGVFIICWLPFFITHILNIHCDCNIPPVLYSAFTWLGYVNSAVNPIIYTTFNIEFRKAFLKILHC
#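 PathHunter D2 cells, attached overnight at 37 deg C, received compound in DMSO plus dopamine at EC20 (50 nM final) for 90 min at 37 deg C. Beta-arrestin recruitment was read as luminescence after 1 h with detection reagent at ambient temperature.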
# Six1-Eya2 blk – blocks human Six1 binding to Eya2 | activity change, % (test concentration not listed) | actives 0.56% (n = 360,000) | AlphaScreen GST-Six1/His-Eya2 binding, biochemical; stronger effect = lower value; control for the full effect not named in the record | Q15475+O00167; in the data active = activity change below about -65%; inconclusive = about -30% to -65%; inactive = above about -30%; further: on the % scale 0 is the no-effect control and ±100 the full control effect; compound concentration not given in the record
#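 Compounds are tested against tagged Six1 and Eya2 proteins bridged by glutathione donor and nickel acceptor beads; after a one-hour incubation at 37 °C without light, AlphaScreen emission is recorded.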
# CtBP-E1A inh – blocks the CtBP interaction with E1A; actives 0.49% (n = 340,000); activity change, % (no concentration beside the values); AID 651724; AlphaScreen GST-E1A/His-CtBP binding, 1536-well; stronger effect = lower value; control for the full effect not named in the record; in the data active means activity change below about -65%; inconclusive means about -30% to -65%; inactive means above about -30%; further: on the % scale 0 is the no-effect control and ±100 the full control effect; compound concentration not given in the record
#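 Steps: dispense buffer (Tris pH 8.0, NaCl 300 mM, TCEP 1 mM, BSA, Tween 20); add 5X protein mix (GST-E1A, His-CtBP, 125 nM each); pin 23 nL compound; 2 h at 37 °C, dark; add 5X beads (50 ug/mL); 1 h; read.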
# TRPV1 potentiator – potentiators of human vanilloid receptor 1 (TRPV1); TRPV1-expressing cells, Fluo-8 calcium influx, capsaicin EC20 potentiation; host cell line not named in the record; control for the full effect not named in the record; actives 0.02% (n = 320,000); potentiation, % at 8.33 µM; Q8NER1; active means potentiation above 80%; inconclusive means 30% to 80%; inactive means below 30%; further: 0% is about no effect
#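 TRPV1-expressing cells were cultured overnight at 35.5C and loaded with Fluo-8 calcium dye for 40 to 90 min at room temperature. After a 10 s baseline, compound was added and calcium influx was read kinetically for 3 min (ex 480/em 520 nm).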
# * hit, by the source's call; ? = inconclusive; . = no result given; & = joins results of further samples.
structure | TRPML1 ag | TRPML1 blocker | D2 PAM | Six1-Eya2 blk | CtBP-E1A inh | TRPV1 potentiator
COc1cc2sc3ccc(-c4ccc(CN5CCOCC5)cc4)cc3c(=O)c2cc1OC | -0.2 | 8.5 | 23.6 | -5.0 | . | .
Cc1ccc(S(=O)(=O)N2CCOCC2)cc1NC(=O)COC(=O)c1ccc2c(c1)OCCO2 | -0.7 | 3.5 | -3.1 | -5.6 | 2.5 | 13.9
Cc1cc(C)c(S(=O)(=O)CCC(C)C)c(=O)[nH]1 | 0.3 | -2.8 | -2.6 | 3.3 | 9.9 | -0.7
CCCCCCSc1cccc(-c2nc3ccc(Cl)cn3c2NCCCC)c1 | -0.6&-0.5 | 1.0 | -4.5 | 8.9&7.2 | 9.9&10.5 | .
CC(C)(C)CN1CCN(CCCc2ccccc2)C(CCO)C1 (stereo not given) | 0.6 | -6.1 | -20.2 | 19.6 | 5.6 | -4.0
COc1cc(C(O)c2nc(-c3cccc(F)c3)cs2)ccc1F (stereo not given) | -0.7 | . | -5.2 | 2.1 | -10.7 | .
O=C1C2CCCCC2C(=O)N1c1ccc(S(=O)(=O)Nc2ncccn2)cc1 (stereo not given) | -0.4 | -4.0 | 1.4 | -0.1 | 0.8 | -5.3
O=c1c2[nH]c3ccc(F)cc3c2ncn1CC1CCCO1 (stereo not given) | 0.0 | -12.1 | -2.8 | 15.8 | -8.9 | -5.7
COc1ccc(-c2oc3cc(OC)c(O)c(OC)c3c(=O)c2OC)cc1O | . | . | -18.8 | -23.8 | -23.4 | 8.5
COc1ccc(NC(=O)CCN2CCC(C)CC2)cc1 | 3.3 | 11.3 | -21.3 | 5.0 | -2.9 | 4.5
Cc1ccc(C)c(N(CC(=O)NCc2ccco2)C(=O)CNS(=O)(=O)c2ccccc2)c1 | -0.7 | -7.4 | -0.4 | 5.1 | -2.0 | 6.0
O=C(CC1NC2CCCCC2NC1=O)Nc1cccc(C(F)(F)F)c1 (stereo not given) | 0.5 | 30.3 | -2.9 | 13.5 | 0.3 | 12.9
CC(C)C(=O)N=c1sc2cc(F)cc(F)c2n1C | 0.5 | -1.1 | 0.4 | 11.6 | 7.5 | -13.9
Cc1cc(C)n(C)c(=O)c1C#N | -0.2 | -4.7 | -5.8 | 3.4 | -4.7 | 7.5
CC(c1ccccc1)n1cc(C(=O)NCc2ccccn2)nn1 (stereo not given) | 0.8 | 31.6 | -4.8 | 9.6 | -1.6 | -7.6
CCOC(=O)C1CCN(S(=O)(=O)c2c[nH]c(=O)[nH]c2=O)CC1 | 0.6 | 1.1 | -12.1 | 0.0 | 11.3 | 22.3
CCOc1ccc(S(=O)(=O)N2CCC(C(=O)N3CCOCC3)CC2)cc1Cl | -1.0 | 17.2 | 1.7 | 0.9 | 3.3 | -6.0
CC(C)[C@H](NC(=O)OC(C)(C)C)c1nnc(S(=O)(=O)Cc2c(F)cccc2Cl)o1 | 2.9 | 10.7 | -29.7 | 4.2 | 5.1 | 17.6
O=C(Cc1cccs1)NC1CCCC1 | -0.7 | 4.7 | -13.6 | 10.4 | -12.9 | -8.9
C#CCSc1nnc(-c2sc3ccccc3c2Cl)o1 | -0.3 | 3.3 | 0.7 | 7.2 | -6.3 | -8.6

# Copied from the list:
# Six1-Eya2 blk, COc1ccc(-c2oc3cc(OC)c(O)c(OC)c3c(=O)c2OC)cc1O reads -23.8
# D2 PAM, C#CCSc1nnc(-c2sc3ccccc3c2Cl)o1 reads 0.7

# Other structures
structure | TRPML1 ag | TRPML1 blocker | D2 PAM | Six1-Eya2 blk | CtBP-E1A inh | TRPV1 potentiator
COc1cccc(C(=O)Cn2c(=N)n(C)c3ccccc32)c1 | -0.9 | -16.3 | -1.8 | 4.6 | -1.4 | 3.5
O=C(COc1ccc2c(c1)OCO2)Nc1cccc(F)c1 | 0.8 | 4.4 | -7.6 | 1.5 | -1.1 | 0.9
C[C@H](NC(=O)c1nc[nH]c1C(=O)N1CCN(C(=O)OC(C)(C)C)CC1)C(=O)OCc1ccccc1 | -0.2 | -6.5 | -1.2 | -3.2 | 7.7 | 4.1
CCCNc1c(NC(=O)C2CCC(C)CC2)c(=O)oc2ccccc12 (stereo not given) | -0.1 | -4.6 | -6.8 | 5.1 | 3.1 | -6.0
CC(C)(C)OC(=O)N1CCC(C(=O)N2CCCCCC2)CC1 | 0.3 | 31.4 | -20.8 | 7.1 | 3.9 | 8.2
CSc1nc(-c2ccccc2)nn1S(=O)(=O)c1ccc(Cl)cc1 | -0.6 | -9.1 | -0.7 | 5.7 | 4.2 | 7.5
Cc1sc(NC(=O)CN(Cc2ccccc2)C(=O)C(C)C)c(C(N)=O)c1C | 0.6 | -11.2 | -5.0 | -1.5 | . | 4.0
N#Cc1ccc(-c2ccco2)nc1SCc1ccccc1 | 7.6 | 35.4 | -3.2 | 41.8 | 65.0 | 10.2
CCCCCn1nc(C(=O)N2CCc3ccccc32)c2ccccc2c1=O | -1.8 | -7.5 | -8.4 | -11.4 | . | -5.3
Cc1nn(-c2ccccc2)c(C)c1/C=N/Nc1nc2ccccc2[nH]1 | -0.4 | 11.1 | -7.2 | -19.8 | -27.5 | 10.9
O=C(NC(=S)N(Cc1ccccc1)c1ccccn1)C1CC1 | 3.8 | -8.8 | -6.3 | -3.7 | -16.5 | ?
O=C(/C=C/c1c(F)cccc1Cl)c1ccc(O)cc1 | 0.8 | -6.5 | -1.8 | 4.0 | 1.5 | 0.9
O=C1N[C@@H](Cc2c[nH]c3ccccc23)COC(=O)[C@H](Cc2ccc(F)cc2)C/C=C\C[C@@H]1CC(=O)N(CCO)Cc1ccccc1 | 0.1 | -15.9 | 0.0 | -5.8 | -6.8 | .
COc1cccc(CN2CCCN(S(=O)(=O)c3ccc(Br)cc3)CC2)c1 | -0.3 | -3.4 | -25.7 | -7.3 | -8.5 | 27.0
CCN1C(=O)C2(C(C#N)=C(N)Oc3n[nH]c(-c4ccccc4)c32)c2ccccc21 (stereo not given) | 0.0 | -7.1 | 3.3 | 3.1 | -8.4 | 4.5
COC(=O)c1c(NC(=O)Cc2cccs2)sc2c1CCCC2 | 1.7 | -8.6 | 3.1 | -0.5 | 3.9 | 13.0
CC12CCC(=O)N1C(C(=O)NNC(=O)c1cccc(Cl)c1)CS2 (stereo not given) | 0.2 | -14.8 | -5.7 | -4.2 | 6.8 | 3.4
COC(=O)/C=C1\SC(=Nc2ccccc2)NC1=O | 1.2 | 12.6 | -20.4 | 1.5 | 1.3 | -0.7
CCOC(=O)c1cncc(NC(=O)c2ccccc2)c1 | -0.4 | 13.7 | -9.0 | -4.0 | 2.3 | -6.8
CC(C)OP(=O)(c1ccc(N(C)C)cc1)C(O)c1cccnc1 (stereo not given) | 0.5 | 18.1 | -20.3 | 4.1 | . | 17.1
OC(c1cccc(Cl)c1)c1nc(-c2csc3ccccc23)cs1 (stereo not given) | -0.1 | . | -0.5 | 1.9 | 0.4 | .
CCCc1ccc2oc(C(=O)N3CCC[C@H]3CO)c(C)c2c1 | . | . | -3.9 | 8.7 | . | 4.6
O=C(COC(=O)c1ncc(Cl)c(Cl)c1Cl)NCc1cccs1 | 0.4 | 2.4 | 2.0 | 7.8 | 5.1 | 4.8
Cc1cnc(C(=O)OCC(=O)NC(=O)c2ccccc2)cn1 | 1.1 | -7.3 | -10.6 | 4.2 | -1.7 | -4.1
Cc1ccc2cccc(OCCCOc3ccccc3CO)c2n1 | -1.3 | -13.5 | -2.2 | 0.1 | . | 19.1
CC(C)(C)c1nnc2sc(SCC(=O)c3ccc(Cl)cc3)nn2c1=O | 0.9 | 17.9 | -13.6 | 0.4 | 0.1 | -3.6
O=C(CN1CCN(S(=O)(=O)c2ccc(Cl)s2)CC1)N1CCCCC1 | 0.1 | -2.4 | -3.1 | -1.9 | 0.0 | -6.4
CCC1CCCCN1CCCNC(=O)c1ccc2nc(N3CCCCC3)sc2c1 (stereo not given) | -1.2 | -3.2 | -19.6 | 8.5 | 13.7 | -6.9
CCc1cccc(NC(=O)CCc2nc3sc4c(c3c(=O)[nH]2)CCCC4)c1 | 1.0 | -17.2 | -3.4 | -15.8 | 2.4 | -0.4
O=C(COC(=O)c1ccc(Br)o1)Nc1ccc2[nH]c(=O)[nH]c2c1 | -0.5 | 9.8 | -2.3 | -20.9 | . | 4.1
O=C(CSc1nnnn1C1CCCC1)Nc1ccccc1F | -0.3 | 10.6 | -10.5 | 6.5 | . | -9.5
COc1ccc(CNC(=S)Nc2cc(C)ccc2C)cc1 | -0.7 | 19.9 | -25.4 | -6.9 | -4.3 | -6.5
Cc1ccc(NC(=O)NCC2CCN(Cc3cccc(Cl)c3)CC2)c(Cl)c1 | 1.3 | 6.6 | -24.6 | -5.5 | 0.7 | 1.5
O=C(c1ccc(F)cc1)C1CCN(C(=O)Nc2ccc(F)cc2F)CC1 | 0.0 | 17.0 | -6.7 | 0.9 | -0.3 | -10.1
O=C(CC1C(=O)NCCN1C(=S)Nc1ccccc1)Nc1ccc2c(c1)OCCO2 (stereo not given) | 1.1 | -14.7 | -11.8 | -0.3 | 0.2 | -8.8
O=S(=O)(Cc1cc(-c2ccc(Cl)cc2)no1)c1ccccc1 | -0.3 | 24.5 | ? | 0.0 | 27.4 | 8.6
CCOc1ccc(N2C(=O)Nc3ccccc3C2(O)C(=O)NCc2ccc(F)cc2)cc1 (stereo not given) | -0.3 | 8.1 | -2.4 | 9.3 | 0.3 | 16.6

# Twelve compounds already listed, sorted by SMILES length, largest number first:
structure | TRPML1 ag | TRPML1 blocker | D2 PAM | Six1-Eya2 blk | CtBP-E1A inh | TRPV1 potentiator
CCOc1ccc(N2C(=O)Nc3ccccc3C2(O)C(=O)NCc2ccc(F)cc2)cc1 (stereo not given) | -0.3 | 8.1 | -2.4 | 9.3 | 0.3 | 16.6
O=C(CC1C(=O)NCCN1C(=S)Nc1ccccc1)Nc1ccc2c(c1)OCCO2 (stereo not given) | 1.1 | -14.7 | -11.8 | -0.3 | 0.2 | -8.8
CCc1cccc(NC(=O)CCc2nc3sc4c(c3c(=O)[nH]2)CCCC4)c1 | 1.0 | -17.2 | -3.4 | -15.8 | 2.4 | -0.4
O=C(COC(=O)c1ccc(Br)o1)Nc1ccc2[nH]c(=O)[nH]c2c1 | -0.5 | 9.8 | -2.3 | -20.9 | . | 4.1
Cc1ccc(NC(=O)NCC2CCN(Cc3cccc(Cl)c3)CC2)c(Cl)c1 | 1.3 | 6.6 | -24.6 | -5.5 | 0.7 | 1.5
O=C(c1ccc(F)cc1)C1CCN(C(=O)Nc2ccc(F)cc2F)CC1 | 0.0 | 17.0 | -6.7 | 0.9 | -0.3 | -10.1
CCC1CCCCN1CCCNC(=O)c1ccc2nc(N3CCCCC3)sc2c1 (stereo not given) | -1.2 | -3.2 | -19.6 | 8.5 | 13.7 | -6.9
CC(C)OP(=O)(c1ccc(N(C)C)cc1)C(O)c1cccnc1 (stereo not given) | 0.5 | 18.1 | -20.3 | 4.1 | . | 17.1
O=C(COC(=O)c1ncc(Cl)c(Cl)c1Cl)NCc1cccs1 | 0.4 | 2.4 | 2.0 | 7.8 | 5.1 | 4.8
Cc1cnc(C(=O)OCC(=O)NC(=O)c2ccccc2)cn1 | 1.1 | -7.3 | -10.6 | 4.2 | -1.7 | -4.1
COc1ccc(CNC(=S)Nc2cc(C)ccc2C)cc1 | -0.7 | 19.9 | -25.4 | -6.9 | -4.3 | -6.5
O=C(CSc1nnnn1C1CCCC1)Nc1ccccc1F | -0.3 | 10.6 | -10.5 | 6.5 | . | -9.5
